CDC25B-CDK2 inh: human CDC25B-CDK2/CyclinA binding inhibition | 94,000 compounds, 0.72% hits | P30305+P24941 | HTRF CDC25B-CDK2/CyclinA binding, anti-His/anti-Flag; stronger effect = higher value | z-score (test concentration not listed);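 note: score is relative to mean and SD of negative controls; strong numbers were not always called active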
HIV TAR-Tat: HIV-1 TAR-Tat binding disruption | HIV-1 TAR RNA, Tat peptide displacement FRET; stronger effect = higher value | z-score (no concentration beside the values) | 100,000 compounds, 0.6% hits | AID 1259389;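 note: score is relative to mean and SD of negative controls; some compounds called inactive have numbers as strong as hits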
* hit, by the source's call; / = not tested or not shown.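 Rule for the calls: active = z-score from 3 up in half or more of its runs; inactive = the rest.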

no.	molecule	HIV TAR-Tat	CDC25B-CDK2 inh
1	CCCCCSc1nnc2c(n1)OC(c1cccnc1)N(C(C)=O)c1ccccc1-2 (centres undefined)	-0.38	0.15
2	O=C1CCC(=O)N(c2ccccc2)N1	/	-0.15
3	CCCc1cc(=O)n2nc(N3CCC(C(=O)NCc4cccs4)CC3)sc2n1	1.37	-1.32
4	Cn1c(C(=O)N2CCN(c3ccccn3)CC2)c(N2CCCC2=O)c2cc(F)ccc21	-1.54	/
5	O=C(Cn1ccc2cc(S(=O)(=O)N3CCCCC3)ccc21)NC1CC1	0.44	/
6	Clc1cccc(-n2ncc3c(NCCc4ccccc4)ncnc32)c1	0.15	/
7	Cc1cnc(NC(=O)C(=O)c2c[nH]c3ccccc23)s1	1.76	-1.75
8	Cn1nnnc1NCc1ccc(-c2ccc(F)c(Cl)c2)o1	-1.52	/
9	COc1ccc(OCc2nc(-c3cccnc3)no2)cc1	-1.4	-2.04
10	Cc1cc2oc(C(=O)Nc3sc4c(c3C(=O)NCC3CCCO3)CCCC4)cc(=O)c2cc1C (centres undefined)	-0.87	-0.99
11	CCCCC#Cc1ccc(C(=O)NNC(=O)Nc2cc(Cl)cc(Cl)c2)o1	/	-1.25
12	Cc1cccn2c(=O)c3cc(C(=O)N4CCc5ccccc54)n(C)c3nc12	1.15	/
13	Cc1cc2nc(COc3cc(C)c(Cl)c(C)c3)cc(=O)n2o1	1.25	-1.45
14	CCc1nn(CC(=O)NCCN(CC)c2ccccc2)c(=O)c2cc3sccc3n12	0.2	-0.77
15	CCC1C(C#N)=C(N)OC2=C1C(=O)CC(C)(C)C2 (centres undefined)	/	-2.12
16	COc1ccc(Cn2c(=O)sc3ccccc32)cc1OC	-1.26	-1.86
17	Cc1cc(NC2c3ncccc3C(=O)N2Cc2ccco2)ccc1Br (centres undefined)	0.51	/
18	Cc1ccc(-c2nnc3sc(COc4ccc(F)cc4)nn23)cc1	2.4	0.2
19	Nc1ncn([C@@H]2O[C@H](CO)[C@@H](O)[C@H]2O)c(=O)n1	-0.55	0.29
20	O=c1cc(CSc2nnc(-c3cccs3)o2)nc2sccn12	1.4	-2.34
21	CCCCn1c(Cn2ccnc2C)nc2cc(NC(=O)c3ccco3)ccc21	1.5	-1.03
22	CC(C)c1ccc(C2C(C(=O)c3ccco3)=C(O)C(=O)N2CCN2CCOCC2)cc1 (centres undefined)	0.43	-0.98
23	CS(=O)(=O)Nc1cccc(C2=NN(C(=O)c3cccc(Cl)c3)C(c3ccco3)C2)c1 (centres undefined)	0.8	-1.43
24	COc1ccc(C2CC(=O)c3cc(-c4nc(-c5ccc(OC)c(F)c5)cs4)c(=O)[nH]c3C2)cc1 (centres undefined)	-3.52	-1.61
25	O=S(=O)(NCCc1cn2ccsc2n1)c1ccc2c(c1)OCCO2	-0.15	/
26	O=C(NCC1CCCO1)c1cc2n(n1)C(C(F)(F)F)CC(c1ccc(Br)cc1)N2 (centres undefined)	0.78	-0.03
27	O=C1CC(c2ccc(F)c(F)c2)c2cc3c(cc2N1)OCCO3 (centres undefined)	-0.14	1.57
28	CCc1ccc(OC(=O)CSc2nc(-c3ccc(OC)cc3)nc3cc(=O)[nH]n23)cc1	0.37	/
29	CCn1nc(C)cc1C(=O)O	/	-1.69
30	Cc1ccc2[nH]c(CSCc3ccccc3)cc(=O)c2c1	-0.86	/
31	COc1cc2c(cc1OC)C1C(=O)c3c(O)cc4c(c3OC1CO2)C=CC(C)(C)O4 (centres undefined)	0.15	/
32	COc1cccc(Cn2c(-c3nonc3N)nc3ccccc32)c1	-1.5	0.8
33	CC12CC(c3ccccc3O1)N(C(=O)c1ccc(Br)o1)C(=O)N2c1ccccc1 (centres undefined)	/	-3.85
34	O=C(Oc1ccc2ccc(=O)oc2c1)c1ccc(Cl)cc1	/	-2.57
35	Cc1nn(CC(=O)NCc2ccco2)c(=O)c2cc3sccc3n12	/	-0.53
36	CCN(CC)c1ccc(Nc2c(-c3ccc(C)cc3)c(=O)c2=O)c(C)c1	1.85	/
37	O=C(Nc1c(C(=O)N2CCN(c3ccccc3F)CC2)oc2ccccc12)C1CC1	0.51	/
38	Cc1c(C(=O)N2CCN(c3ccccn3)CC2)sc2nc3n(c(=O)c12)CCC3	1.04	/
39	Cc1cccc2c(=O)c(NC(=O)N3CC(C)CC(C)C3)c[nH]c12 (centres undefined)	-0.89	-2.51
40	O=C(CSc1nnc2c3ccccc3n(Cc3ccccc3)c2n1)NCc1ccco1	0.11	-1.08
41	Cc1ccc2occ(CC(=O)Nc3sc4c(c3C(=O)NCC3CCCO3)CCC4)c2c1 (centres undefined)	2.08	1.79
42	CC1CN(C(=O)c2ccco2)c2ccccc2NC1=O (centres undefined)	2.37	0.78
43	O=C(c1ccc2c(=O)n3c(nc2c1)CCCCC3)N1CCN(C2CCCCC2)CC1	0.38	0.73
44	O=C1ON(c2ccccc2)C(c2ccc3c(c2)OCO3)N1c1ccccc1 (centres undefined)	1.22	-2.02
45	Cn1nc(C(=O)N2CCN(C(=O)c3ccco3)CC2)c2c1-c1ccccc1S(=O)(=O)C2	2.78	-0.2
46	CC1CCN(C(=O)Cn2c(=O)oc3cc(S(=O)(=O)N4CCCCC4C)ccc32)CC1 (centres undefined)	0.3	/
47	CN(C)C(CNC(=O)c1cc(-c2ccc(Br)cc2)on1)c1ccco1 (centres undefined)	-0.73	-2.18
48	CCc1nc(-c2csc(S(=O)(=O)Nc3ccc(Cl)cc3)c2)no1	1.64	/
49	CCN(CC)CCN(C(=O)c1ccco1)c1nc2c(C)c(C)ccc2s1	0.88	/
50	CCOc1cc(/C=C2/SC(=S)N(CC(=O)O)C2=O)ccc1OCc1ccc(Cl)cc1	/	-0.62
51	CCc1nn(CC(=O)NC(C)CC)c(=O)c2cccn12 (centres undefined)	1.14	-2.11
52	O=C(NC1CCCCC1)C1CCN(S(=O)(=O)c2ccc3[nH]c(=O)oc3c2)CC1	1.65	/
53	O=C(O)COCC(=O)N1CCN(c2ncccn2)CC1	/	-0.68
54	O=S1(=O)C[C@H](N2CCOCC2)[C@@H](S(=O)(=O)c2ccccc2)C1	-1.54	-1.07
55	CCOC(=O)c1nc2ccccc2n(C)c1=O	-1.32	23*
56	O=C(Nc1ccc(Cl)cc1)Oc1ccccc1N1CCSCC1	/	-1.44
57	C=CCOc1ccc(C2c3c(-c4cc(C)ccc4O)n[nH]c3C(=O)N2Cc2ccco2)cc1OC (centres undefined)	1.09	-0.13
58	Cc1nc(-c2nnc(SCC(=O)c3ccc(F)cc3)n2C)cs1	/	-1.99
59	CCOC(=O)c1nnsc1Nc1ccccc1F	-1.41	/
60	N#C/C(=C\c1cc(C#Cc2ccccc2)cs1)C(=O)c1ccco1	/	-0.54

Further records:
no.	molecule	HIV TAR-Tat	CDC25B-CDK2 inh
61	c1ccc(OCCSCc2nc3ccccc3[nH]2)cc1	3.52	-2.54
62	CN(CC(=O)Nc1ccc(Br)cc1F)S(=O)(=O)c1ccc2[nH]c3c(c2c1)CCCC3	1.13	/
63	COCCN(CCc1ccncc1)S(=O)(=O)c1ccc(-c2ccc(=O)[nH]n2)s1	0.67	/
64	Cc1cc(C)cc(NC(=O)NCCn2nnc3cc(S(=O)(=O)N(C)C)ccc32)c1	1.95	/
65	Cc1c(C(=O)NCCCN2CCOCC2)oc2ccc3c(c12)C=CC1(CCCC1)O3	0.11	/
66	Cc1ccc(C(=O)CSc2nn3c(=O)c(C)nnc3s2)cc1	0.58	/
67	Cc1oc2ncnc(N3CCCCC3)c2c1C(=O)NCCN1CCOCC1	0.22	/
68	Nc1nc(Nc2ccc(F)cc2)sc1C(=O)c1ccc(F)cc1	0.33	1.44
69	CCN1CCN(c2nc3c(S(=O)(=O)c4ccccc4)nnn3c3ccc(Cl)cc23)CC1	-0.43	-0.88
70	CCC(C(=O)NCC1CCCO1)n1nc(C)c2sc3ccccc3c2c1=O (centres undefined)	1.14	-1.08
71	O=C(CCC(=O)N1Cc2cccn2-c2ccccc21)N1CCN(c2ncccn2)CC1	0.95	/
72	O=C(CCc1nnc2ccc(NCc3ccc(F)cc3)nn12)NCCN1CCCC1	0.53	/
73	O=C(Cn1ncn2c(cc3sccc32)c1=O)NC1CCCc2ccccc21 (centres undefined)	-0.47	-4.32
74	CCCN1C(=O)c2[nH]nc(-c3ccccc3)c2C1c1cccnc1 (centres undefined)	1.6	-1.62
75	COC(=O)c1ccc(C2C(C#N)=C(C)NC3=C2C(=O)CC(C)(C)C3)cc1 (centres undefined)	0.42	-0.41
76	CC(=O)NC(=O)/C(C#N)=C/Nc1ccccc1OC(F)(F)F	/	-1.85
77	Cc1ccccc1-c1noc(CCCn2c(=O)[nH]c3cc4c(cc3c2=O)OCO4)n1	1.12	/
78	COc1ccc(-c2nc(SCc3cc(=O)c4cccc(Cl)c4[nH]3)n[nH]2)cc1	6.76*	/
79	CC1CN(C(=O)N2CCC(C(=O)NC3CCCC3)CC2)c2cc(Cl)ccc2O1 (centres undefined)	-2.14	/
80	CCCc1c(C)nc2ncnn2c1Nc1cc(Cl)ccc1OC	0.56	-0.99
81	Clc1cccc(-n2ncc3c(NCCC4=CCCCC4)ncnc32)c1	2.36	/
82	Cc1cc(N2CCC(C)CC2)n2nc(C)c(-c3ccc(F)cc3)c2n1	0.02	-1.35
83	N/C(CS(=O)(=O)c1cccs1)=N\OS(=O)(=O)c1ccccc1C(F)(F)F	/	-2.14
84	O=C(COC(=O)C1CCN(S(=O)(=O)c2cccc3cccnc23)CC1)c1ccc(F)cc1	/	-21.5
85	Cn1c(C(F)(F)F)nnc1S(=O)(=O)Cc1ccc(-c2csnn2)cc1	/	15.8*
86	Cc1nnc(NC(=O)CSCc2cc(=O)n3cc(Cl)ccc3n2)s1	1.06	/
87	CC1(C)CC(Cc2nc(=S)[nH][nH]2)C(=O)O1 (centres undefined)	/	-0.45
88	CCC(=O)c1cc2c(cc1N)OCCO2	-1.84	-3.01
89	CN(C)CCCNC(=O)C(=O)c1c[nH]c2ccccc12	/	-1.39
90	O=C1COc2cc(-c3c(NCC4CCCO4)c(=O)c3=O)ccc2N1 (centres undefined)	0.37	/
91	O=S(=O)(Cc1ccccc1)c1ncc(CO)n1Cc1ccccc1	-0.99	1.58
92	Cc1c(S(=O)(=O)N2CCCc3ccccc32)cnn1-c1ccccc1	/	-2.65
93	CN(CC(=O)NCCc1cccs1)c1nnc(N2CCCC2=O)s1	0.6	-2.01
94	CC(CC(=O)NCCCc1ccco1)CC1=NS(=O)(=O)c2ccccc2N1 (centres undefined)	1.17	/
95	CC1=C(c2ccc(C(C)C)cc2)S(=O)(=O)N=C1N1CCN(C(=O)c2ccco2)CC1	0.03	-1.1
96	CSc1nsc(SC)c1C(=O)NC(=O)NNc1ccc(F)c(Cl)c1	/	-1.81
97	O=C(Nc1ccc2c(c1)OCCO2)N1CCC(CN2CCc3ccccc3C2)CC1	-0.32	/
98	Clc1snnc1COc1ccc2c(c1)OCO2	/	-0.54
99	CC(C)(C)c1ccc2cc(C#N)c(C#N)cc2c1	/	-1.53
100	O=C(CS(=O)(=O)Nc1ccc(F)cc1Cl)Nc1ccc(F)cc1Cl	/	-1.58

Exported with one line to a screen: part of the list above
90	O=C1COc2cc(-c3c(NCC4CCCO4)c(=O)c3=O)ccc2N1 (centres undefined)
91	O=S(=O)(Cc1ccccc1)c1ncc(CO)n1Cc1ccccc1
92	Cc1c(S(=O)(=O)N2CCCc3ccccc32)cnn1-c1ccccc1
93	CN(CC(=O)NCCc1cccs1)c1nnc(N2CCCC2=O)s1
94	CC(CC(=O)NCCCc1ccco1)CC1=NS(=O)(=O)c2ccccc2N1 (centres undefined)
95	CC1=C(c2ccc(C(C)C)cc2)S(=O)(=O)N=C1N1CCN(C(=O)c2ccco2)CC1

entry no. | 90 | 91 | 92 | 93 | 94 | 95
HIV TAR-Tat | 0.37 | -0.99 | / | 0.6 | 1.17 | 0.03
CDC25B-CDK2 inh | / | 1.58 | -2.65 | -2.01 | / | -1.1

Next part:
no.	molecule	HIV TAR-Tat	CDC25B-CDK2 inh
101	O=C1CS(=O)(=O)N(Cc2ccccc2)c2ccsc21	-0.61	1.23
102	CS(=O)(=O)c1ncc(Cl)c(C(=O)Nc2cccnc2)n1	2.16	0.16
103	CCc1ccc(-c2[nH]c3c(c2-c2c(-n4cccc4)n(C)c(=O)n(C)c2=O)c(=O)n(C)c(=O)n3C)cc1	0.28	0.78
104	CN(C(=O)CCCN1C(=O)c2cccc3cccc(c23)C1=O)c1ccccc1	-0.64	-2.7
105	CC(CC(=O)Nc1ccc(F)cc1Cl)S(=O)(=O)c1ccc2c(c1)CCN2C(=O)C1CC1 (centres undefined)	0.14	/
106	Cc1nc2sc(C(c3ccc(Cl)cc3)N3CC(C)OC(C)C3)c(O)n2n1 (centres undefined)	/	-0.65
107	Cn1c(=O)c(=O)n(C)c2cc(S(=O)(=O)Nc3cc(C(=O)O)cc(C(=O)O)c3)ccc21	/	-1.76
108	COc1cc2c(cc1OC)C(c1ccc(F)c(F)c1)CC(=O)N2 (centres undefined)	-1.99	-1.38

3 entries from above, reformatted:
Values run as follows: HIV TAR-Tat	CDC25B-CDK2 inh
#104 CN(C(=O)CCCN1C(=O)c2cccc3cccc(c23)C1=O)c1ccccc1
  -0.64	-2.7
#101 O=C1CS(=O)(=O)N(Cc2ccccc2)c2ccsc21
  -0.61	1.23
#103 CCc1ccc(-c2[nH]c3c(c2-c2c(-n4cccc4)n(C)c(=O)n(C)c2=O)c(=O)n(C)c(=O)n3C)cc1
  0.28	0.78
